Source: PubChem BioAssay (several laboratories)
UCH37 DUB inh: inhibitors of human UCH37 deubiquitinase, primary screen, biochemical, Ub-AMC cleavage, fluorescence; purified proteasome/UCH37; hit rate 0.33% among 330,000; inhibition, % (concentration not given with the values); AID 588478, 2011; Ubiquitin carboxyl-terminal hydrolase isozyme L5 (Homo sapiens), Q9Y5K5;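 active = mean of two replicates above 20%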;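 note: 0% = compound-free wells with enzyme and 100% = wells lacking proteasome; stock transfer was 100 nL into about 20 µL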
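Material: human UCH37 enzyme supplied as purified proteasome complex / Amount: 0.15 nM proteasome as dispensed / Buffer or medium: pH 7.4 Tris-HCl (50 mM) with ovalbumin, ATP-MgCl2, DTT / Times: preincubation 30 min, reaction 25 min, room temperature / Technique: AMC fluorescence from Ub-AMC cleavage, excitation 355 nm, emission 460 nm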
HNF4A DNA FP: change in binding of human HNF4A to DNA, primary screen, biochemical, fluorescence polarization, FITC-DNA; 1 h; AID 1224865, 2016; Hepatocyte nuclear factor 4-alpha (Homo sapiens), P41235; hit rate 0.3% among 360,000; activity change, % at 10 µM; in the data active = activity change above about 30%, passing the limit was not always enough;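 note: controls were the assay level and a saturating level of protein; the project sought stronger binding though the title names inhibitors; some compounds called inactive have numbers as strong as hits; positive values seem to mean higher polarization but the record does not say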
A1 inh: caspase 3/7 activation in MEF A1-2A-BIM cells, primary screen, A1 inhibitor project, cell-based, luminescence, HTS; Caspase-Glo 3/7 luminescence, 3 h; percent of clofoctol response, vehicle zero; caspase activation, % (no concentration beside the values); hit rate 0.066% among 330,000;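 active = over half of replicate activation scores above 10%, or exactly half above 10 with the replicate mean above 10; inconclusive = replicate mean below 10 yet half the replicates above 10; inactive = over half of replicates below 10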;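 note: wells of about 30 µL received 50 nL stock; many hits fall short of the cut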
B2AR ag: beta2AR agonists driving receptor internalization, primary screen, cell-based, FAP fluorogen, flow cytometry; Beta-2 adrenergic receptor (Homo sapiens), P07550; Am2.2-beta2AR cells; reference of the scale not given here; hit rate 0.43% among 340,000; response, % (concentration not given with the values);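 active = response above a set limit, near 3 SD of response in nonfluorescent compounds, cut at about 42% in these data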;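 note: stock transfer was 100 nL into about 11 µL; a reference agonist was the positive control; negative values mostly stem from fluorescent compounds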
LANA-H2A inh: blockers of LANA interaction with H2A/H2B – biochemical, FP readout, HTS, primary screen | cell-free LANA-H2A/H2B peptide, fluorescence polarization | AID 2629, 2010 | hit rate 0.6% among 320,000 | inhibition, % (test concentration not listed); in the data active = inhibition mostly above about 10%, no sharp cut-off; inactive = mostly below about 6.7%;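 note: stock transfer was 7.5 nL into about 10 µL; 0% = median of vehicle wells and 100% = median of positive control wells; one replicate is shown; the record names a cut of 25% in any replicate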
Target sequence (Q9QR71 whole entry, looked up): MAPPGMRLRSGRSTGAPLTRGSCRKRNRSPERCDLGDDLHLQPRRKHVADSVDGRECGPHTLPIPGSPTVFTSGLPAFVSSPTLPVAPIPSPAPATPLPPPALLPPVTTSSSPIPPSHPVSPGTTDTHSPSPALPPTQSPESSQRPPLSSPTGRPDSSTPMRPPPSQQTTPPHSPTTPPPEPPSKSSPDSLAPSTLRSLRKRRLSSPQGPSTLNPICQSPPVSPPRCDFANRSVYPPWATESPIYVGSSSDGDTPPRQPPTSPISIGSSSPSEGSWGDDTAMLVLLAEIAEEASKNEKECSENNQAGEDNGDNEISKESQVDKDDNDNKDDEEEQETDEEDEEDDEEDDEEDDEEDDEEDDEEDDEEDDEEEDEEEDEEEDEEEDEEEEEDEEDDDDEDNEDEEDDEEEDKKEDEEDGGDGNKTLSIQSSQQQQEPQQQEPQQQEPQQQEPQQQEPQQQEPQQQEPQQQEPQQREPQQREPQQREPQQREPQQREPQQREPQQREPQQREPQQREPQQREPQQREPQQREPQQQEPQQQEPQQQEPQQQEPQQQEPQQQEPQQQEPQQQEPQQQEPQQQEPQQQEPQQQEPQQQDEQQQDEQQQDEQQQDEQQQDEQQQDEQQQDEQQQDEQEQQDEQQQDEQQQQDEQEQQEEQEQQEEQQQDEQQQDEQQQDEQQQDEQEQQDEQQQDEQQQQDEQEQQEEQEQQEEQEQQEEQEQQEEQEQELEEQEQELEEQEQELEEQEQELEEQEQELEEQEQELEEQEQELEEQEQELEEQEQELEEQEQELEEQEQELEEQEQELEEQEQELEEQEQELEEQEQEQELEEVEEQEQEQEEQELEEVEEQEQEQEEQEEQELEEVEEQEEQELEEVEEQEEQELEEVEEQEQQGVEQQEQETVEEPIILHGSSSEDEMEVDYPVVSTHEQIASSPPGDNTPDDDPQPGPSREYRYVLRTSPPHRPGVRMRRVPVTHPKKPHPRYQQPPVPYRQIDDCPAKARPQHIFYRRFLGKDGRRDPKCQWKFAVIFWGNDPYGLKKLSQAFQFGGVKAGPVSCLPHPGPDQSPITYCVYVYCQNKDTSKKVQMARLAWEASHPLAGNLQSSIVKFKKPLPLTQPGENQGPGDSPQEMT
E coli growth: E. coli growth inhibition, primary screen, OD600. Escherichia coli growth, 23 h; active compounds read low. OD600 absorbance (no concentration beside the values). hit rate 0.21% among 330,000. AID 1053175, 2014;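 active = OD600 absorbance below the run mean of sample wells minus 3.6 SD, in any replicate, cut at about 0.56 in these data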;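 note: stock transfer was 300 nL into about 60 µL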
Vif TR-FRET: inhibitors of Vif binding to APOBEC3G peptide, primary screen, biochemical, TR-FRET, GST-Vif 1-94, biotin-A3G peptide, dose response retest (AID 1117319); TR-FRET GST-Vif / biotin-A3G peptide binding; higher % means a stronger effect; test concentration not given here; strong numbers were not always called active; inhibition, %; hits with a dose series show IC50 in µM; hit rate 0.57% among 260,000;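 active = above the screen mean plus three standard deviations and confirmed in dose response; inconclusive = results disagree or hit not tested in dose response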;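 note: Vif residues 1-94 fused to GST binding biotinylated APOBEC3G peptide 110-148; 0% = full assay without inhibitor and 100% = GST in place of GST-Vif; retest series ran down from 100 µM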
The depositor's hits bear a star; ? = inconclusive; . = no result given.

SMILES	UCH37 DUB inh	HNF4A DNA FP	A1 inh	B2AR ag	LANA-H2A inh	E coli growth	Vif TR-FRET
O=C(NCc1cccnc1)C(=O)NCC(c1ccco1)N1CCN(c2ccc(F)cc2)CC1 (stereo unspecified)	2.3	-1.2	-0.4	13.5	3.2	0.689	16.9%
Cc1nc2ccc(Cl)cc2[nH]1	3.0	-5.8	.	-7.8	.	0.643	.
CC(NC(=O)C12CC3CC(CC(C3)C1)C2)C(=O)N/N=C/C1=C(N2CCOCC2)C(=C\c2ccccc2)/CC1 (stereo unspecified)	.	-3.7	0.8	-8.3	-1.0	.	24.5%
CCOc1ccc(NC(=O)Cc2cccc3ccccc23)c([N+](=O)[O-])c1	5.6	1.9	0.2	-1.9	-0.7	0.661	2.3%
O=C(Nc1cc(C(F)(F)F)ccc1N1CCOCC1)c1ccc2ccccc2n1	5.5	1.4	0.1	4.0	-0.6	0.707	-5.1%
COc1ccc(OC)c(C2C(C#N)=C(N)Oc3cc(C)n(Cc4ccccn4)c(=O)c32)c1 (stereo unspecified)	6.7	-4.9	0.5	3.0	0.8	0.668	-71.6%
CCC(C)(C)C1CCC2(CC1)NC(=O)N(CC(=O)N1CCN(S(=O)(=O)c3cc(C)ccc3C)CC1)C2=O (stereo unspecified)	2.5	-4.9	-0.5	-0.8	-0.1	0.743	.
CS(=O)(=O)c1[nH]nc(-c2ccccc2Cl)c1C#N	6.7	3.9	0.6	-0.4	2.9	0.696	-2.3%
CCC(NC(=O)c1cc(COc2cncc(Cl)c2)on1)c1ccncc1 (stereo unspecified)	1.1	-0.3	0.0	0.9	0.3	0.68	.
CCOC(=O)N1CCN(Cc2c(F)cccc2Cl)CC1	5.0	5.8	0.3	3.1	1.8	0.704	0.7%
COc1cc(C(=O)O/N=C(\N)c2ccc([N+](=O)[O-])cc2)cc(OC)c1OC	2.9	-0.8	0.4	4.2	-10.8	0.695	-14.6%
FC(F)(F)c1cc(Cl)c2nnc(-c3cccnc3)n2c1	1.7	4.9	0.2	6.1	1.9	0.72	-10.8%
C=CCOc1ccc(/C=C/C(=O)OCC(=O)NCCC2=CCCCC2)cc1	-2.2	2.6	-1.0	-0.1	-1.4	0.746	.
O=c1nc2ccc(Cl)cn2c2ccc(S(=O)(=O)N3CCCCC3)cc12	.	-0.7	0.9	-9.6	0.3	.	.
CCCc1cc(=O)oc2cc(OCC(=O)N3CCC(C(N)=O)CC3)ccc12	-25.4	-1.5	1.1	-15.7	-6.1	0.781	.
COC(=O)c1ccc(NC(=O)C2CCCN(S(=O)(=O)c3cnc[nH]3)C2)cc1 (stereo unspecified)	3.8	0.0	-0.2	-0.4	-3.3	0.748	1.3%
O=C(Nc1ccc([N+](=O)[O-])cc1)c1ccccc1F	2.8	4.0	-4.8	-3.6	5.3	0.674	4.0%
COc1ccc(CCNC(=O)c2ccc(Cl)c(S(=O)(=O)N3CCCC3)c2)cc1	2.5	-4.2	.	6.7	.	0.651	-8.1%
O=C(Cc1ccccc1[N+](=O)[O-])N1CCN(c2ccc(F)cc2)CC1	3.3	-0.7	-0.2	1.5	-0.4	0.703	-3.6%
C/C(=N\OC(=O)Nc1ccc(Cl)cc1)c1ncc(C(F)(F)F)cc1N1CCOCC1	.	1.6	0.0	2.0	-3.1	.	-2.4%
COc1cc(OC)c2c(-c3ccccc3)cc(=O)oc2c1C(CCN1CCCCC1)c1ccc2c(c1)OCO2 (stereo unspecified)	-1.9	-1.6	0.5	22.4	2.3	0.718	3.3%
O=C(NCc1ccc2c(c1)OCO2)Nc1ccc2nsnc2c1	-10.9	-0.6	0.0	-0.3	1.1	0.645	-9.1%
O=C(NC1CCCCCC1)c1cc(S(=O)(=O)N2CCCCC2)ccc1N1CCOCC1	3.0	1.8	0.3	2.0	2.6	0.703	-0.5%
Nc1nnc(CCS(=O)(=O)c2ccc(Br)cc2)s1	2.0	-1.8	1.4	0.7	-5.6	0.686	-10.3%
Cc1ccc(-c2nnc(-c3ccccc3S(=O)(=O)Cc3ccc(Cl)cc3)o2)cc1	-41.3	0.1	0.1	6.9	1.1	0.779	-5.4%

Going on with the list.
SMILES	UCH37 DUB inh	HNF4A DNA FP	A1 inh	B2AR ag	LANA-H2A inh	E coli growth	Vif TR-FRET
OCCN(Cc1ccccc1)Cc1nc(CC2CC2)no1	3.0	1.6	0.2	-3.1	2.2	0.699	-11.3%
Cc1cccc(-c2noc(CNC(=O)c3ccoc3C)n2)c1	0.0	50.2*	0.0	9.6	-5.0	0.7	.
CCC(=O)NCCc1nc2ccccc2n1Cc1ccc(C)cc1	4.5	-0.3	-1.2	-7.0	5.2	0.676	11.6%
O=C(NCCCN1CCOCC1)c1cc(-c2ccc(Cl)c(Cl)c2)on1	7.7	-0.2	0.3	-2.2	3.4	0.684	-2.2%
O=C1NC(c2ccccc2)=CC(c2ccccc2)N1 (stereo unspecified)	3.5	4.1	1.2	1.1	-3.1	0.7	5.8%
CCOC(=O)[C@H](CCc1ccccc1)N[C@@H](C)C(=O)N1CCC[C@@H]1C(=O)O	-2.2	-1.5	0.2	-8.7	-0.8	.	.
Cc1cc2ccccc2nc1Br	2.7	-0.9	0.5	-82.8	-3.1	0.657	14.7%
Cc1ccccc1N/N=C/c1ccc(N2CCOCC2)cc1	.	0.0	0.1	0.6	4.9	.	12.9%
Nc1c(C(=O)Nc2nccs2)sc2nc(-c3cccs3)cc(C(F)(F)F)c12	-1.2	60.6	-0.5	-339.3	-0.5	0.736	2.6%
O=C(NC1(C(F)(F)F)NC(=O)N(c2ccc(F)c(Cl)c2)C1=O)c1ccncc1 (stereo unspecified)	1.1	-1.6	-0.4	0.7	-3.7	0.634	-7.3%
CC1CN(S(=O)(=O)c2ccc(C(=O)NN3CCN(C)CC3)cc2)CC(C)O1 (stereo unspecified)	2.4	2.5	-1.9	2.3	-4.9	0.693	-1.8%
COc1ccc([C@@H]2[C@@H]3C(=O)N(C(C)(C)C)C(=O)[C@@H]3[C@]3(Cc4ccccc4)C(=O)N(c4cccc(C)c4)C(=O)N23)cc1	1.5	-3.9	0.2	6.0	2.2	.	.
CC(C)CNC(=O)COC(=O)c1c2c(nc3ccccc13)/C(=C/c1cccs1)CC2	-53.0	19.8	-1.1	0.1	0.9	0.749	.
Cc1ccc(C(=O)N(CC#N)CC#N)cc1C	-0.1	1.5	0.2	-2.6	0.2	0.647	7.1%
CSc1nnc(NC(=O)c2ccc3c(c2)OCO3)s1	-1.4	3.1	-14.1	1.7	0.1	0.717	.
OCC1OC(Oc2c(Br)cc(Br)cc2Br)C(O)C(O)C1O (stereo unspecified)	5.3	1.5	.	3.2	.	0.649	-8.3%
COc1ccc(C2=NOC(C(=O)NCCN3CCOCC3)C2)cc1 (stereo unspecified)	5.2	2.3	-0.5	-5.2	3.1	0.734	15.4%
O=C(NN1C(=O)C2C(C1=O)C1C=CC2C12CC2)c1cccnc1 (stereo unspecified)	3.1	-3.1	-1.2	-2.5	0.8	0.687	?
O=C(NCc1ccccn1)C(=O)C1C(=O)Nc2ccccc21 (stereo unspecified)	9.4	-1.9	0.3	4.7	1.4	0.713	.
CC(C)NC(=O)c1ccc(CS(=O)(=O)c2ccc(Br)cc2)o1	3.7	3.4	-0.2	-8.6	3.0	0.759	-0.6%
Cc1ccc(S(=O)(=O)/N=C/c2ccco2)cc1	.	-6.2	0.0	11.2	1.7	.	17.3%
O=C(CSc1nnc2ccccn12)NNC(=O)c1ccc([N+](=O)[O-])cc1	2.1	-0.9	-0.4	-9.7	1.6	0.673	10.5%
Cc1ccc2cc(CCNC(=O)c3cccc([N+](=O)[O-])c3)c(=O)[nH]c2c1C	5.1	-1.9	1.5	-5.0	-2.6	0.701	25.3%
CCCCS(=O)(=O)N1CCCC(C(=O)Oc2ccc(Cl)cc2)C1 (stereo unspecified)	2.2	2.7	0.3	6.9	-2.7	0.604	.
CCOc1cc(/C=C(/C#N)c2nc3ccccc3[nH]2)ccc1Oc1ccc([N+](=O)[O-])cn1	-131.8	4.5	0.0	-20.7	-4.6	0.684	-2.5%

Following part:
SMILES	UCH37 DUB inh	HNF4A DNA FP	A1 inh	B2AR ag	LANA-H2A inh	E coli growth	Vif TR-FRET
COc1cccc(C2=NOC(C(=O)NCc3ccccn3)C2)c1 (stereo unspecified)	0.0	-0.7	0.9	-1.6	-2.4	0.691	0.7%
Cn1c(SCC(=O)Nc2cccc(F)c2)nc2c([nH]c3ccccc32)c1=O	-13.2	-0.8	0.3	-5.1	1.9	0.735	16.9%
Cc1ccc2nc(N(CCCN(C)C)C(=O)c3ccc(S(=O)(=O)N4CCOCC4)cc3)sc2c1	0.7	5.2	0.1	1.4	1.6	0.652	.
C/C(CC(=O)Nc1ccc(F)cc1)=N\NC(=O)c1ccccn1	.	2.5	0.1	2.2	-0.9	.	-12.6%
CCOC(=O)c1nnsc1C(OC)Oc1ccccc1 (stereo unspecified)	0.9	-0.4	.	6.6	.	0.65	-8.1%
CC1=NOC(=O)/C1=C\c1ccccc1	5.1	4.1	0.6	10.9	3.5	0.597	3.1%
O=C(N/N=C/c1ccco1)c1cccc(S(=O)(=O)Nc2ccccc2Cl)c1	.	-5.7	0.4	4.0	-5.0	.	.
CCOc1ccc(-n2c(SCc3nc(-c4cccs4)no3)nnc2-c2ccncc2)cc1	-0.1	-3.5	0.0	-8.7	-1.9	0.717	4.1%
COc1ccc(Cl)cc1NC(=O)CN1C(=O)CC(C)S(=O)(=O)c2ccccc21 (stereo unspecified)	2.8	-6.8	0.2	-2.3	1.2	0.678	3.0%
CNC1(c2nnnn2-c2ccccc2C)CCOC(C)(C)C1 (stereo unspecified)	2.6	0.0	0.6	-3.3	2.4	0.726	-7.2%
CC1(NC(=O)CC(c2ccccc2)(c2ccccc2)c2ccccc2)CCN(CCCc2ccccc2)C1=O (stereo unspecified)	-2.8	-1.6	1.2	.	-2.0	0.725	.
Clc1cccc(CSc2nnc(-c3c[nH]c4ccccc34)o2)c1	1.9	1.6	-0.5	0.7	-2.4	0.681	-5.8%
COc1cc(C(=O)N2CCN(C(=O)C3COc4ccccc4O3)CC2)cc(OC)c1OC (stereo unspecified)	1.9	5.0	-0.2	-0.1	-3.3	0.664	.
CCCN(CCC)CCCNC(=O)c1cc2cc3ccc(OC)cc3nc2o1	-495.1	0.8	1.8	9.8	0.5	0.713	-4.4%
COc1ccc(C(=O)Cn2c(C(C)=O)nc3ccccc32)cc1	.	0.5	.	-14.7	.	.	3.9%
O=C(Cc1nnc(NC(=O)c2cccc([N+](=O)[O-])c2)s1)NCc1ccccc1	0.0	0.7	0.1	7.2	-5.5	0.64	-6.7%
Cc1cc(OC(C)C(=O)N2CCN(c3ccc(F)cc3)CC2)c2c(C)c(C)c(=O)oc2c1 (stereo unspecified)	0.2	3.0	-0.1	3.5	2.0	0.664	-4.0%
CNC(=O)c1c(NC(=O)c2cc(-c3cc(C)c(C)cc3O)n[nH]2)sc2c1CCCC2	-35.7	.	-0.9	.	-3.6	0.701	-0.6%
CC(C)(C)c1ccc(/C=C/C(=O)NCCCN2CCOCC2)cc1	-1.5	-0.6	0.3	5.3	2.7	0.657	.
Cc1cccc(Nc2ncnc3nc[nH]c23)c1C	2.9	-3.1	-0.6	12.1	1.4	0.715	10.4%
COC(=O)CCS(=O)(=O)c1ccc(Cl)c(Cl)c1	1.1	.	0.1	.	-3.1	0.707	2.0%
